CtBP-E1A blk = inhibitors of CtBP/E1A interaction; actives 0.49% (n = 340,000); AlphaScreen GST-E1A/His-CtBP binding, 1536-well; active compounds read low; control for the full effect not named in the record; activity change, % (no concentration beside the values); in the data active means activity change below about -65%; inconclusive means about -30% to -65%; inactive means above about -30%; note: % is set by controls: 0 for no effect and ±100 for the full control effect
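Protein mix (5X: 125 nM each GST-E1A, His-CtBP) was incubated with pinned compound 2 h at 37 deg C in dark, in 50 mM Tris pH 8.0 buffer with 300 mM NaCl. Glutathione donor and nickel acceptor beads followed; AlphaScreen signal read after 1 h.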
D2 ag = agonists of human D2 dopamine receptor (beta-arrestin) | P14416 | DiscoveRx PathHunter D2 beta-arrestin, luminescence, 90 min; 100% = 57 uM dopamine signal | activation, % (concentration not given with the values) | actives 0.084% (n = 360,000) | AID 624465; in the data active = activation above about 40%; inconclusive = about 15% to 40%; inactive = below about 15%; note: compound concentration not given in the record; the text of the record calls up to 30% inactive
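Agonist mode: compounds alone added to overnight-plated D2 PathHunter cells for 90 min at 37 C, with 57 uM final dopamine (EC100) defining full response. Beta-arrestin recruitment detected by chemiluminescent reagent, read after 1 h at ambient temperature.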
Six1-Eya2 inh = inhibitors of human Six1/Eya2 interaction; Q15475+O00167; AID 651725; activity change, % (no concentration beside the values); AlphaScreen GST-Six1/His-Eya2 binding, biochemical; active compounds read low; control for the full effect not named in the record; actives 0.56% (n = 360,000); in the data active = activity change below about -65%; inconclusive = about -30% to -65%; inactive = above about -30%; note: % is set by controls: 0 for no effect and ±100 for the full control effect
Target sequence (O00167 whole entry, looked up): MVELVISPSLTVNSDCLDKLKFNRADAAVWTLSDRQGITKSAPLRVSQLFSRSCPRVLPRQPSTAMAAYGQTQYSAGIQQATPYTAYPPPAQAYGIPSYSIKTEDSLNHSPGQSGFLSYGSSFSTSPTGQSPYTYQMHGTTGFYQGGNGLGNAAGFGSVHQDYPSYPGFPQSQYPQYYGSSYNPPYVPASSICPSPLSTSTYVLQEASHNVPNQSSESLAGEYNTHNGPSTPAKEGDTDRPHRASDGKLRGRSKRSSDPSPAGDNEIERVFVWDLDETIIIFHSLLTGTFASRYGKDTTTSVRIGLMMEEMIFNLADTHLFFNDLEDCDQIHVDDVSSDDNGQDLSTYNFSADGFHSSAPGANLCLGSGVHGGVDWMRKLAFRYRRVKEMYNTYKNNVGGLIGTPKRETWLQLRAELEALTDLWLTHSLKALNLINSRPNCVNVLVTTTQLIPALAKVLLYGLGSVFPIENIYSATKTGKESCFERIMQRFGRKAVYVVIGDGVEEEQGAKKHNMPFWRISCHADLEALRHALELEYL
Target sequence (Q15475 whole entry, looked up): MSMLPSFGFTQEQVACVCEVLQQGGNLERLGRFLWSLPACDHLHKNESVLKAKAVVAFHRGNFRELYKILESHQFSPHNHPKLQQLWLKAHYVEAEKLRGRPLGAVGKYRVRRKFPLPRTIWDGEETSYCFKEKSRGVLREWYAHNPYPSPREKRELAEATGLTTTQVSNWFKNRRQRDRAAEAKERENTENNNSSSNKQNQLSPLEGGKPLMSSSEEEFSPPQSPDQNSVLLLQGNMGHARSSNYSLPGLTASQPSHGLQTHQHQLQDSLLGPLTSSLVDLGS
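Homogeneous AlphaScreen proximity assay pairing GST-Six1 with His-tagged Eya2 (added as 5X mix: 250 nM and 500 nM) in 50 mM Tris pH 8.0, 300 mM NaCl, 1 mM TCEP. Glutathione donor and nickel acceptor beads; 1 h, 37 °C, dark.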
D2 PAM = potentiates the human D2 dopamine receptor allosterically; P14416; DiscoveRx D2 beta-arrestin cells, luminescence, 90 min; 100% = 57 uM dopamine signal; potentiation, % (test concentration not listed); actives 0.23% (n = 360,000); AID 624464; active = potentiation of 50% or more; inconclusive = 30% to 50%; inactive = 30% or less;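 note: compound concentration not given in the record; tested on top of an EC20 dose of dopamine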
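D2 cells co-treated with compound plus 50 nM dopamine (EC20) for 90 min at 37 deg C to detect potentiation. Beta-arrestin recruitment was read as enzyme-fragment luminescence after 1 h at ambient temperature. Full response was set by 57 uM dopamine.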
PINK1 expr mod = modulators of PINK1 expression. PINK1 immunofluorescence, high-content cytometry, 24 h. actives 0.2% (n = 410,000). Potency, µM (titrated, usually from 76.6 µM), without a hit: at the highest dose activation (PINK1 increase), usual class: activators. AID 624263; active = well fitted activation curve with a large enough effect; inconclusive = small, poorly fitted or top-dose-only effect; inactive = flat fitted curve, though single readings scatter; cell line not stated here;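 note: potency is the fitted concentration of half-maximal effect; % of control where 0% means no effect; nearly all actives have a fitted effect of over 65% in size; a mitochondrial uncoupler was the plate control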
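Decision-based qHTS: stable cells, 24 h exposure to five compound concentrations, CCCP as control. Fixed cells stained for PINK1 plus nuclear, mitochondrial and cell markers, cytometer read.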
TRPML1 agonist = activates the human TRPML1 channel. Q9GZU1. TRPML1-expressing cells, Ca2+ dye fluorescence, FDSS; host cell line not named in the record; reference of the full effect not given here. activation, % (test concentration not listed). actives 0.12% (n = 410,000); in the data active = activation above about 50%; inconclusive = about 30% to 50%; inactive = below about 30%; note: 0% is about no effect; the text of the record puts the active cut at 80%
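Kinetic FDSS Ca2+ read in Tet-induced TRPML1-DL cells (ABD Ca8 dye plus quencher, 45-90 min RT loading): baseline, then compound, then 110 s agonist window; EC80 agonist 54-4 at 4uM final added afterwards for a 110 s antagonist window.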
* marks the source's active call; other numbers are inactive results; ? = inconclusive; · = no result given; & = joins results of further samples; [ ] = another dose, or the depositor's remark.

structure	CtBP-E1A blk	D2 ag	Six1-Eya2 inh	D2 PAM	PINK1 expr mod	TRPML1 agonist
Cc1ccc(S(=O)(=O)N2CCC(=O)N([C@H](COCc3cccc(C)c3)C(C)C)CC2)cc1	6	·	-8	·	0.3%	0.7
C/C=C/Cn1cccc(C(=O)Nc2ccc(OC)cc2)c1=O	-1	-0.2	4	-3	-1.0%	-0.4
Cc1ccccc1OCC(=O)N(CC(C)C)c1c(N)n(CC(C)C)c(=O)[nH]c1=O	5	-2.2	8	-5	-1.6%	0.0
Cc1ccc(C)c(NC(=O)c2cc[n+](C)cc2)c1	-2	2.8	3	-1	-0.4%	0.9
O=C1c2cccc(O)c2C(=O)c2c(O)cc(CO)cc21	-18	14	-19	89*	0.0%	·
Cn1cnc2nc(Cl)nc(Cl)c21	-9	-0.2	-10	-3	2.6%	0.4
CC(Sc1nnc(COc2ccccc2)n1-c1ccccc1)C(=O)O (stereo not drawn)	-7	-2.4	9	-1	0.7%	-0.3
COc1ccccc1N1CCN(C(=O)c2ccc(NC(C)=O)cc2)CC1	-6	-0.3	5	-10	4.9%	-0.4
CS(=O)(=O)N1CCN(c2cccc(Cl)n2)CC1	8	-0.4	5	4	-0.3%	1.2
COc1cccc(CN(C)C(=O)c2cc(COc3ccc(-n4cncn4)cc3)on2)c1	5	8.6	0	6	0.1%	-0.9

Carrying on.
structure	CtBP-E1A blk	D2 ag	Six1-Eya2 inh	D2 PAM	PINK1 expr mod	TRPML1 agonist
COc1cc(NC(=O)C2CC(c3cccc(Br)c3)=NO2)cc(OC)c1OC (stereo not drawn)	-1	-2.9	-4	-9	-0.5%	0.2
COc1ccc(OCc2nn3c(-c4ccccn4)nnc3s2)cc1	?	-0.8	-25	-9	0.9%	-0.3
CC(C)(O)CC[C@H](OC(=O)c1ccccc1)[C@](C)(O)[C@H]1CC[C@@]2(O)C3=CC(=O)[C@@H]4C[C@@H](O)[C@H](O)C[C@]4(C)C3CC[C@]12C (stereo partly drawn)	·	0.6	1	-3	1.4%	0.6
O=C(CN1CCCN(S(=O)(=O)c2ccc(F)cc2)CC1)Nc1ccccc1Br	-3	-3.8	-1	-16	0.6%	1.6
C=CCn1c(SCC(=O)NC2CCS(=O)(=O)C2)nnc1-c1ccc(Cl)cc1 (stereo not drawn)	0	-2.3	2	-9	-3.8%	2.3
Cc1nc(N2CCOCC2)nc2c1CCC2	-17	-2.7	-2	-6	-0.6%	0.2
CN1CCCN(C(=O)/C=C/c2ccc(Cl)cc2Cl)CC1	·	-2.4	-5	-7	2.6%	0.7
CCc1ccccc1NC(=S)N1CCN(c2ccccn2)CC1	0	2.8	-7	-16	1.7%	0.8
CC(=O)Nc1ccc(S(=O)(=O)N2CCC(C(=O)NCc3ccco3)CC2)cc1	-2	-7.7	3	-16	-1.3%	1.2
CCOc1ccc(Cl)cc1S(=O)(=O)N1CCCC1	4	-0.7	7	0	26%[38.3 µM]	-0.3

Following part.
structure	CtBP-E1A blk	D2 ag	Six1-Eya2 inh	D2 PAM	PINK1 expr mod	TRPML1 agonist
COc1ccccc1C1CC(c2ccc(C)cc2)Nc2ncnn21 (stereo not drawn)	-1	-2.2	-1	-8	-3.8%	0.8
O=C(Nc1ccc2c(c1)OCO2)c1cncc(Br)c1	3	-2.3	-1	-1	-1.1%[38.3 µM]	3.4
Cc1ccc2ccccc2c1NC(=O)c1ccco1	·	-5.9	1	-4	0.3%	-0.2
COc1ccc(NC(=O)COC(=O)/C=C/C(=O)OCC(=O)Nc2ccc(OC)c(Cl)c2)cc1Cl	2	-0.8	-1	-9	3.7%	-0.1
COc1ccc(NC(=O)NCCN2CCc3ccccc3C2)cc1	-1	-2.8	0	-44	-3.3%	-0.2
COC(=O)Nc1ccc(S(=O)(=O)N2CCCCCC2)cc1	8	0.6	3	-3	0.1%[38.3 µM]	0.3
CC(C)COC(=O)Nc1ccccc1C(=O)N1CCOCC1	-1	-0.8	12	-6	0.4%	0.4
O=C(Nc1nnc(-c2cccs2)s1)c1cccc(F)c1	10	-2.6	7	-5	5.7%	-0.1
C=CCN1C(=O)/C(=C2/Sc3ccccc3N2CCCS(=O)(=O)O)SC1=S	-21	-5.4	?	-15	-2.1%	-0.2
N#CCCN(C(=O)CO/N=C/c1cccc([N+](=O)[O-])c1)c1ccccc1	-1	-0.2	0	-2	-4.7%	1.3

The listing continues.
structure	CtBP-E1A blk	D2 ag	Six1-Eya2 inh	D2 PAM	PINK1 expr mod	TRPML1 agonist
CN(CCO)c1nc(N)c(C#N)c(CC#N)c1C#N	-22	2.7	-16	-1	-2.3%	-0.2
C=CCC12C=C(OC)C(=O)OC(OC)(C1O)[C@H](c1ccc3c(c1)OCO3)[C@H]2C (stereo partly drawn)	7	4.7	-3	7	-0.2%	·
Cc1c(CN2CCC(CO)(CCOc3ccccc3)CC2)c(=O)n(-c2ccccc2)n1C	20	-1.3	12	-14	0.9%	-0.3
Cc1ccc(NC(=S)N2CCCC2)cc1	·	-5.2	4	-12	3.4%	0.1
CCOC(=O)CSc1ccc2nnc(CCNS(=O)(=O)c3ccccc3)n2n1	·	6.1	7	-9	-2.5%&0.5%	0.3&0.2
COc1ccc(-c2ccc(C(=O)Nc3cccc(C(F)(F)F)c3)c3occc23)c(C)c1	8	-1.5	0	0	6.3%	1.1
CC(C)[C@H](NC(=O)OCc1ccccc1)C(=O)OCC(=O)N1C(C)CCCC1C (stereo partly drawn)	2	0.2	-1	-7	0.9%	0.5
CCOc1ccccc1N1CC(C(=O)N2CCc3ccccc3C2)CC1=O (stereo not drawn)	4	-0.2	-12	-5	-1.0%	-0.3
COCc1c(C(=O)NCC(c2ccco2)N2CCCC2)oc2ccccc12 (stereo not drawn)	-12	-0.9	-2	-28	1.1%	-0.6
C=C(C)C(=O)Nc1cccc(C2=NOC3(C2)C[C@H](C(N)=O)N(C(=O)CC)C3)c1 (stereo partly drawn)	1	-3.1	3	-8	?	-0.4

(further entries)
structure	CtBP-E1A blk	D2 ag	Six1-Eya2 inh	D2 PAM	PINK1 expr mod	TRPML1 agonist
CCCCN1CN=C(Nc2nc3ccccc3o2)NC1	14	-1.4	7	-5	8.9%[38.3 µM]	-0.7
O=C1c2ccccc2-c2nc3ccccc3n21	7&10	-2.0&-2.0	1&9	-1&1	-0.1%&0.8%	0.6&0.2
O=C(CCc1ccccc1)N/N=C/c1cc(Br)ccc1O	-12	-11	-4	-2	4.3%	1.2
N/C(=N\N=C\c1ccc(O)c(O)c1)c1nonc1N	-1	-4.0	-15	-9	-0.1%	-0.5
Oc1ccc(C[C@H]2CNC(=S)N2CC2CCCN2C[C@H](Cc2ccc(O)cc2)N2C[C@H](Cc3ccccc3)N(CC3CCCCCC3)C2=S)cc1 (stereo partly drawn)	-25	8.6	-11	2	1.4%	-0.1
CCOC(=O)c1noc(C)c1C(=O)Nc1cccc(F)c1	-5	-4.2	-8	-3	3.4%	-0.3
COC(=O)CSc1n[nH]c(-c2ccncc2)n1	-15	-2.9	-10	3	1.9%	0.3
O=C(COC(=O)c1ncc(Cl)c(Cl)c1Cl)NC1CCS(=O)(=O)C1 (stereo not drawn)	6	3.2	-1	-68	-2.0%	-0.3
COc1ccc(S(=O)(=O)N2CCN(C(=O)c3cc(-c4ccc(C)cc4)n[nH]3)CC2)cc1	17	2.2	6	-1	1.9%	1.4
Cc1nnc(NC(=O)CSc2nc3[nH]ncc3c(=O)[nH]2)s1	·	4.2	4	-1	-0.1%	-0.6

New compounds follow
structure	CtBP-E1A blk	D2 ag	Six1-Eya2 inh	D2 PAM	PINK1 expr mod	TRPML1 agonist
CC(C)N1CCC1(C)C(=O)Nc1ccc2scnc2c1 (stereo not drawn)	3	-4.6	5	-7	-1.2%	-1.2
O=C(NCc1ccncc1)Nc1cccc([N+](=O)[O-])c1	·	-3.1	-2	2	-2.1%	3.8
O=C(NCc1ccc(F)cc1)c1[nH]c(C(F)(F)F)nc1-c1ccccc1	-8	-1.2	-14	-3	1.3%	1.5
Cc1ccccc1NCN1C(=O)C2CCC(C)(C1=O)C2(C)C (stereo not drawn)	-16	0.7	3	-4	3.9%	·
O=C(CCn1cccc1)NC1CCCc2ccccc21 (stereo not drawn)	0	2.0	6	-11	2.9%	1.6
CCOC(=O)CNc1c(-c2ccc(Cl)cc2)nc2cnccn12	-1	0.4	10	10	-3.0%	1.2
COc1cc(/C=C2/NC(=O)NC2=O)ccc1OCC(=O)Nc1ccc(F)cc1	-1	1.8	-8	-6	-2.4%	-0.4
CNC(=S)NCCc1ccc(OC)cc1	3	1.2	14	-6	-0.9%	2.2
Cc1cc(O)c(C(=O)/C=C/c2ccccc2O)c(=O)o1	·	0.9	-2	-1	-0.1%	3.3
O=C(Nc1cccc(Cl)c1)c1nc[nH]c1C(=O)N1CCc2ccccc2C1	8	-1.3	7	-28	6.7%	0.6

(list continues)
structure	CtBP-E1A blk	D2 ag	Six1-Eya2 inh	D2 PAM	PINK1 expr mod	TRPML1 agonist
O=S1(=O)N=C(N/N=C/c2ccc(Br)o2)c2ccccc21	-20	0.1	-15	4	-2.1%	-0.5
CCCn1c(N)c(C(=O)CSc2nc3ccccc3c(=O)n2-c2ccc(OC)cc2)c(=O)[nH]c1=O	3	-2.5	6	-1	0.9%	-0.5
CCOc1cc(C)c(S(=O)(=O)N2CCCC2)cc1C	18	-2.8	10	-7	-0.5%	0.1
O=S(=O)(Nc1cccc(S(=O)(=O)N2CCCC2)c1)c1ccc(Br)cc1	-1	0.0	0	-8	-0.6%	0.0
CC(C)C(C(=O)Nc1ccc(S(N)(=O)=O)cc1)N1C(=O)c2ccccc2C1=O (stereo not drawn)	3	2.8	6	0	2.8%	0.4
Cc1ccc(Nc2nnc(SCC(=O)NCC3CCCO3)s2)cc1C (stereo not drawn)	-77*	-2.5	-68*	-5	-0.8%	-0.1
CCCn1c(SCC(=O)Nc2nnc(CC)s2)nnc1-c1ccncc1	5	6.1	7	0	-0.8%	0.8
COc1cc(OC)cc(-c2c(Sc3ccccc3)c3cc(-c4ccc(OC)nc4)ccc3n2C)c1	-15	·	-11	·	3.6%	0.4
Cc1ccc(Cl)cc1NC(=O)N(C)CCO	·	-2.7	-16	-21	1.0%	-0.1
O=c1c(Br)c(N2CCCCC2)cnn1-c1ccccc1	0	-1.3	1	10	1.2%	-0.9
CCOC(=O)N1CCN(c2ccc(Cl)c(Cl)c2)CC1	12	0.0	9	-2	11%[38.3 µM]	0.2
Cc1cccc(CNC(=O)c2ccccc2N)c1	0	1.0	2	6	7.8%[38.3 µM]	-0.3
COc1ccc(Oc2nc3ccccc3n3cccc23)cc1	3	0.1	4	-19	3.2%	0.8

Some of the entries above in another layout.
Under each structure – CtBP-E1A blk, D2 ag, Six1-Eya2 inh, D2 PAM, PINK1 expr mod, TRPML1 agonist
O=S(=O)(Nc1cccc(S(=O)(=O)N2CCCC2)c1)c1ccc(Br)cc1
  -1, 0.0, 0, -8, -0.6%, 0.0
COc1ccc(Oc2nc3ccccc3n3cccc23)cc1
  3, 0.1, 4, -19, 3.2%, 0.8
Cc1cccc(CNC(=O)c2ccccc2N)c1
  0, 1.0, 2, 6, 7.8%[38.3 µM], -0.3
CCCn1c(SCC(=O)Nc2nnc(CC)s2)nnc1-c1ccncc1
  5, 6.1, 7, 0, -0.8%, 0.8

Screening results from PubChem.

Outcome played no part in choosing rows. Share with any hit: about 1.3%.
